HNF4A DNA FP: change in binding of human HNF4 alpha to DNA; HNF4a-FITC DNA binding, fluorescence polarization, 1 h; activity change, % at 10 µM; P41235; 360,000 tested, 0.3% active; in the data active = activity change above about 30%, passing the limit was not always enough;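 note: controls were the assay level and a saturating level of protein; the project sought stronger binding though the title names inhibitors; some compounds called inactive have numbers as strong as hits; positive values seem to mean higher polarization but the record does not say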
Target sequence (P41235 whole entry, looked up): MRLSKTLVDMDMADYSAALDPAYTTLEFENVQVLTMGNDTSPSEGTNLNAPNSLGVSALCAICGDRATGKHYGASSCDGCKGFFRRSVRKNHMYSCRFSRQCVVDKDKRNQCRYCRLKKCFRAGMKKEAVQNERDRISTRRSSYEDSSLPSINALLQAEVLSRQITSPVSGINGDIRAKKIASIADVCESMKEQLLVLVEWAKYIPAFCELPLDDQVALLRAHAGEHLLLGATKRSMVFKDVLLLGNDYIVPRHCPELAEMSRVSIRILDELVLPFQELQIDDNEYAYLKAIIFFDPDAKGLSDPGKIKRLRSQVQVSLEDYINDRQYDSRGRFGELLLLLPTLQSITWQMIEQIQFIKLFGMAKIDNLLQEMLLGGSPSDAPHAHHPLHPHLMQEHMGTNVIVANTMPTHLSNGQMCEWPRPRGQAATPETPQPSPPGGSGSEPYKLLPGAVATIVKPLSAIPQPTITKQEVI
rRNA inh HTS: inhibitors of bacterial rRNA selective over humanized ribosomes; E. coli WT GFP vs humanized-ribosome RFP mutants, fluorescence, 24 h; hits give low values; DMSO median 0, no signal -100; GFP signal change (wild-type ribosome), % (no concentration beside the values); 350,000 tested, 1.6% active;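 active = significant combined selectivity score with lowered wild-type GFP, culture density cut under 30%, mutant RFP and density less affected; inactive = any of these conditions unmet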; note: one replicate is shown; some compounds called inactive have numbers as strong as hits
ALR H2O2 inh: inhibitors of human sulfhydryl oxidase ALR | P55789 | purified ALR, DTT oxidation, H2O2 HRP-luminol luminescence | inhibition, % (no concentration beside the values) | 290,000 tested, 3.8% active;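 active = mean and each replicate at 75% or more; inconclusive = only one of the two met; inactive = neither met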;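 note: stock transfer was 7.5 nL into about 7.5 µL; 0% = neutral wells and 100% = wells with inactivated enzyme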
Target sequence (P55789 whole entry, looked up): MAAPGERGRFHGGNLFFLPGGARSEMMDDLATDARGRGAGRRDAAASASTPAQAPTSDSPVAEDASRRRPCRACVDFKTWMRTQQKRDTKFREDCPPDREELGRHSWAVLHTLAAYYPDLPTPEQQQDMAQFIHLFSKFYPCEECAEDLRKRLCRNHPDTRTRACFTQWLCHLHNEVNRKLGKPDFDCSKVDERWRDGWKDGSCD
Vif TR-FRET: HIV-1 Vif–A3G interaction blockers – biochemical, TR-FRET, GST-Vif 1-94, biotin-A3G peptide, dose response retest, primary screen (AID 1117319); TR-FRET GST-Vif / biotin-A3G peptide binding; higher % means a stronger effect; test concentration not given here; strong numbers were not always called active; inhibition, %, or IC50 in µM where a hit was titrated; 260,000 tested, 0.57% active;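 active = above the screen mean plus three standard deviations and confirmed in dose response; inconclusive = results disagree or hit not tested in dose response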;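 note: Vif residues 1-94 fused to GST binding biotinylated APOBEC3G peptide 110-148; 0% = full assay without inhibitor and 100% = GST in place of GST-Vif; retest series ran down from 100 µM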
AF4-AF9 inh: blocks AF4 peptide binding to human AF9. AlphaScreen, biotin-AF4 peptide binding to FLAG-AF9. 350,000 tested, 0.47% active. P42568. inhibition, % at 10 µM. AID 651704;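 active = every replicate reaching a set inhibition limit, whatever the replicate mean, cut at about 25% in these data; inconclusive = mean inhibition reaches that limit but some replicates miss it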;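 note: 0% = plate neutral control median and 100% = total signal loss; the record names both 10 and 1 µM as test concentration; the first replicate is given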
E coli growth: inhibitors of Escherichia coli growth; OD600, 23 h; hits give low values; OD600 absorbance (no concentration beside the values); 330,000 tested, 0.21% active;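 active = OD600 absorbance below the run mean of sample wells minus 3.6 SD, in any replicate, cut at about 0.56 in these data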;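 note: stock transfer was 300 nL into about 60 µL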
FGF22 binding: shifts melting point of recombinant human FGF22 | calls only at 9.99 µM | recombinant FGF22 thermal shift, SYPRO orange fluorescence; percent of sucrose octasulfate shift, DMSO zero | AID 651658 | Q9HCT0 | 340,000 tested, 1.5% active;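 active = melting point raised past a set limit in the mean and every replicate; inconclusive = no clear call; three in four hits are not shown here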
Target sequence (Q9HCT0 whole entry, looked up): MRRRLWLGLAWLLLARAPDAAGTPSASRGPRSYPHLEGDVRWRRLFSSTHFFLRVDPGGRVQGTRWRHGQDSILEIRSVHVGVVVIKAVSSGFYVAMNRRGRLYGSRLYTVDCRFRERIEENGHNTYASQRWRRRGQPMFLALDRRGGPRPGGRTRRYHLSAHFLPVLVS
rRNA inh HTS OD600: further read-out of rRNA inh HTS, marked with its call; OD600 change, %; measured here: OD600 growth;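 optical density of the mix in the first replicate; 0 = DMSO median and -100 = no signal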
rRNA inh HTS RFP: second read-out of rRNA inh HTS, no call of its own (marks repeat the call); RFP signal change, %; measured here: RFP humanized mutant strains;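 first replicate; 0 = DMSO median and -100 = no signal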
* = called active by the depositor; i = inactive; u = inconclusive; x = not tested or not shown; & = joins results of further samples. These rows are one share of the data; rates above refer to the full screens.

SMILES	HNF4A DNA FP	rRNA inh HTS	rRNA inh HTS OD600	rRNA inh HTS RFP	ALR H2O2 inh	Vif TR-FRET	AF4-AF9 inh	E coli growth	FGF22 binding
COc1ccccc1OCc1nn[nH]n1	0.9	9	3	-0.4	-11	x	1.0	0.65	i
Cc1n[nH]c(C)c1-c1nc2ccccc2[nH]1	-0.3	x	x	x	-4	6%	x	0.64	x
CCOc1ccc(OCc2ccc(C(=O)O)o2)cc1	4.4	x	x	x	2	12%	x	0.7	x
NS(=O)(=O)c1ccc(CNC(=O)/C=C/c2cccc([N+](=O)[O-])c2)cc1	3.0	5	-3	-0.1	0	3%	-2.1	0.66	i
CN(CC(O)COCc1ccccc1F)C1CCCCC1 (configuration not stated)	-2.6	6	-6	2.3	1	-2%	-1.8	0.65	i
CCN(CC(=O)Nc1ccc(OC)cc1)C(=O)COc1cccc2c1OC(C)(C)C2	0.7	-10	-7	1.2	-54	x	-1.5	x	i
O=Cc1c(N2CCN(c3ccccc3)CC2)nc2ccccn2c1=O	3.9	x	x	x	99*	1%	0.8	0.7	i
C[C@H]1CN([C@@H](C)CO)C(=O)c2cccc(NC(=O)c3ccc(-c4nccs4)cc3)c2O[C@H]1CN(C)C(=O)Nc1ccc(C(F)(F)F)cc1	x	-2	1	1.2	x	x	3.8	x	i
COc1ccccc1CCNC(=O)c1cc(-c2ccccn2)nc2ccccc12	-0.7	4	18	-0.8	x	-16%	-8.2	0.71	i
Cc1nc2cc(Cc3ccccc3)ccc2o1	1.3	-14	-9	2.2	x	-7%	-0.6	x	i
COc1ccc(NC(=O)Nc2cccc3c2O[C@@H](CN(C)C(=O)Nc2ccc(F)cc2)[C@H](C)CN([C@H](C)CO)C3=O)cc1	x	-1	4	2.0	x	x	0.1	x	i
C/C=C/c1ccc2c(c1)O[C@@H](CN(C)C(=O)Cc1ccncc1)[C@H](C)CN([C@H](C)CO)S2(=O)=O	x	-1	-2	1.4	x	x	2.4	x	i
Cc1cccc(NC(=O)N2CCCC2C(=O)Nc2ccccc2)c1 (configuration not stated)	1.6	3	6	2.8	1	u	-1.4	0.7	i
COc1ccccc1CNC(=O)C[C@@H]1CC[C@@H]2[C@H](COC[C@@H](O)CN2C(=O)Nc2ccccc2)O1	x	1	-3	-3.7	x	x	-1.0	x	i
COCCCNC(=S)NNC(=S)NCCCOC	3.3	15	19	-0.3	11	17%	x	0.7	i
Cc1cc(S(=O)(=O)Nc2c(C)ccc3nsnc23)ccc1F	-4.6	-10	-16	-0.2	-6	4%	-4.0	0.62	i
CC(=O)N1CCc2cc(Br)cc(S(=O)(=O)N3CCCCC3)c21	-3.7	-1	-4	-0.5	-3	x	-7.8	0.66	i
CCc1c(O)nc(SCC(=O)c2ccccc2)n(-c2ccccc2)c1=O	-1.1	-12	-5	4.2	99*	-3%	3.5	0.6	i
CO[C@@H]1CN(C)C(=O)c2cc(NC(=O)C3CCCC3)ccc2OC[C@H](C)N(C(=O)CC2CC2)C[C@@H]1C	x	-1&-1	4&-3	0.1&-1.4	x	x	-1.7	x	i
CCOc1ccc2[nH]c(=O)c(CN(CCN3CCCC3)C(=S)Nc3ccccc3OCC)cc2c1	0.2	0	-4	4.2	-9	x	6.6	0.71	i
CC(=O)N1CCC(C(=O)N2CCN(S(=O)(=O)c3cccs3)CC2)CC1	-2.2	2	3	-2.8	-2	x	-0.8	0.67	i
O=C(N[C@H]1CC[C@@H](CCNS(=O)(=O)c2cccc(Cl)c2)O[C@@H]1CO)c1ccc(F)cc1	x	-1	2	0.3	x	x	-1.1	x	i
C[C@@H]1CN([C@H](C)CO)C(=O)c2cccc(NS(=O)(=O)c3ccccc3)c2O[C@@H]1CN(C)Cc1ccc(C(=O)Nc2ccccc2N)cc1	x	-3	-5	0.7	x	x	-0.8	x	i
Cc1ccc(NC(=O)COC(=O)Cn2c(C)csc2=O)cc1S(=O)(=O)N1CCOCC1	0.1	0	5	-2.0	x	x	1.2	0.68	i
CC1=CC2=NC(=O)/C(=C\c3cc(C)n(-c4ccccc4)c3C)C(=N)N2O1	-0.4	-4	-13	3.0	-2	-41%	2.0	0.67	i
COc1cccc(-c2nn3c(-c4ccco4)nnc3s2)c1	3.3	x	x	x	94*	0%	x	0.66	x
O=C(N/N=C/c1cc(Br)cc(Br)c1O)c1ccncc1	x	-34	-53	0.7	14	27%	u	x	x
Cc1ccc(NC(=O)C2(C)CCN2C(=O)Cc2ccccc2)cc1C (configuration not stated)	2.1	0	-33	-3.8	x	x	-3.5	x	i
Cc1cc([N+](=O)[O-])c2ccccc2c1NS(=O)(=O)c1ccccc1	-5.6	-52	-69	-14	x	-3%	0.1	0.67	i
CN(NC(=O)c1ccc(Cl)cc1)c1cccc(Cl)n1	-1.8	x	x	x	-1	-1%	x	0.71	x
C=CCOc1ccccc1CN(CCc1ccccc1)C(=O)c1cccc(S(C)(=O)=O)c1	-1.4	-12	-35	-1.4	-1	x	-0.6	0.69	i
CCOc1ccc(C2C(C#N)=C(N)SC(N)=C2C#N)c(OCC)c1	137	x	x	x	10	-5%&10%	x	0.71	x
CCOC(=O)[C@]12CCCC=C1N(Cc1ccc(Cl)cc1Cl)C(=O)[C@H](CC(=O)N1CCOCC1)C2	0.0	-24	-45	0.7	x	x	-3.7	x	i
COc1cc(C(=S)N2CCCCC2)ccc1OCC(=O)Nc1ccccc1Cl	1.1	16	9	-6.5	-10	10%	-1.1	0.69	i
CCCNC(=O)C1(C)CCCN(Cc2ccc(C(=O)OCC)o2)C1 (configuration not stated)	-1.4	9	9	-0.7	x	x	-1.6	x	i
CC(N=C1NS(=O)(=O)c2ccccc21)C(=O)Nc1ccc(F)cc1Cl (configuration not stated)	-0.6	-2	8	-2.1	-1	0%	-0.5	0.71	i
CCCCN(C(=O)COc1ccc(F)cc1)c1c(N)n(CC(C)C)c(=O)[nH]c1=O	2.2	x	x	x	x	-4%	-2.1	x	i
Cc1cc(C)nc(SCc2nnc(SCC(=O)Nc3ccc(C)c(C)c3)n2Cc2ccco2)n1	1.5	x	x	x	x	11%	x	0.71	x
COc1ccc(NC(=O)Nc2ccc3c(c2)C(=O)N([C@@H](C)CO)C[C@H](C)[C@H](CN(C)C(=O)C2CCCCC2)OCCCC[C@H](C)O3)cc1	x	-2	2	-1.6	x	x	-2.8	x	i
COCC(=O)N1[C@H](CO)[C@H]2c3ccccc3N(C(=O)c3ccccc3)C[C@H]21	x	1	12	7.5	x	x	0.8	x	i
COc1ccccc1NC(=O)N1C[C@H](O)COC[C@@H]2O[C@H](CC(=O)NCc3ccccc3)CC[C@H]21	x	-4	-15	2.6	x	x	-4.9	x	i
Cc1noc(C)c1C(=O)N1CCC(Cc2ccccc2)CC1	1.6	x	x	x	-4	4%	x	0.64	x
CC1CCN(C(=S)c2ccc(-c3ccc(Cl)cc3Cl)o2)CC1	0.2	-16	-16	-6.1	-2	-7%	0.2	0.68	i
CC(C)CCN=Cc1c(O)n(-c2ccccc2)c(=O)c2ccccc12	-2.4	x	x	x	2	-4%	x	0.66	x
O=C(Cn1cnc(S(=O)(=O)N2CCCCC2)c1)N1CCN(c2ccc([N+](=O)[O-])cc2)CC1	0.6	x	x	x	-18	22%	x	0.66	x
Cn1c(NC(=O)c2ccco2)cc(=O)n(C)c1=O	0.1	8	9	5.2	-16	4%	1.7	0.69	i
O=C(COC(=O)CCc1nc2ccccc2s1)Nc1ccc(S(=O)(=O)N2CCOCC2)cc1	-2.3	x	x	x	-21	u	x	0.67	x
CCOc1ccc(C(C(=O)NC2CCCCC2)N(C(=O)c2ccco2)c2ccc(-n3cnnn3)c(C)c2)cc1 (configuration not stated)	-1.7	x	x	x	6	x	x	0.76	x
CCCCC(CC)COC(=O)c1ccc(N(C)C)cc1 (configuration not stated)	-3.6	3	6	-0.4	5	x	x	0.68	i
CC(=O)Nc1ccc(S(=O)(=O)Nc2nc3ccccc3nc2N2CCCC2)cc1	2.2	x	x	x	8	-1%	x	0.77	x
C[C@H](CO)N1C[C@H](C)[C@@H](CN(C)C(=O)c2ccncc2)Oc2cc(-c3cccc(C#N)c3)ccc2S1(=O)=O	x	5	3	1.7	x	x	-8.2	x	i
COc1ccc(C(=O)n2cnc(N)n2)cc1	2.1	x	x	x	x	0%	x	0.67	x
CC(c1ccco1)N(C(=O)c1ccc(Cl)s1)c1ccccn1 (configuration not stated)	x	-10	-7	-0.1	-1	x	2.0	0.71	i
CN(C)C(=O)c1cccc(-c2ccc([C@@H]3[C@@H](C#N)N(C(=O)C4CCC4)[C@H]3CO)cc2)c1	x	3	-5	1.3	x	x	0.4	x	i
Cc1ccc(NC(=O)CN(C)C(=O)CCSc2ccc(F)cc2)cc1	1.0	-7	-8	-1.1	x	x	-0.3	0.67	i
Cc1ccc(NC(=O)Cn2nc(C)c([N+](=O)[O-])c2C)cc1Cl	1.4	3	1	-2.1	x	-15%	-7.9	0.69	i
Oc1ccc(-c2csc(Nc3cccc4ccccc34)n2)cc1O	-1.9	-22	-16	-3.5	73	u	9.1	0.68	i
COc1cc(NC(=O)C2=C(N3CCOCC3)/C(=C\c3ccc(Cl)cc3Cl)CC2)cc(OC)c1OC	4.0	-10	3	-6.3	-2	25%	7.3	x	i
Cc1cccc(OCc2nnc(SC(C)C(=O)Nc3ccc(N4CCOCC4)cc3)o2)c1 (configuration not stated)	2.5	5	0	1.7	3	1%	5.7	0.62	i
O=C(CN1CCC(NC(=O)c2ccco2)CC1)Nc1ccccc1C(F)(F)F	1.9	-2	-5	-2.2	3	4%	0.9	0.7	i

Complete entries as entered above.
Listed for CC(c1ccco1)N(C(=O)c1ccc(Cl)s1)c1ccccn1 (configuration not stated) → HNF4A DNA FP = x; rRNA inh HTS = -10; rRNA inh HTS OD600 = -7; rRNA inh HTS RFP = -0.1; ALR H2O2 inh = -1; Vif TR-FRET = x; AF4-AF9 inh = 2.0; E coli growth = 0.71; FGF22 binding = i
Listed for NS(=O)(=O)c1ccc(CNC(=O)/C=C/c2cccc([N+](=O)[O-])c2)cc1 → HNF4A DNA FP = 3.0; rRNA inh HTS = 5; rRNA inh HTS OD600 = -3; rRNA inh HTS RFP = -0.1; ALR H2O2 inh = 0; Vif TR-FRET = 3%; AF4-AF9 inh = -2.1; E coli growth = 0.66; FGF22 binding = i

Next structures follow:
SMILES	HNF4A DNA FP	rRNA inh HTS	rRNA inh HTS OD600	rRNA inh HTS RFP	ALR H2O2 inh	Vif TR-FRET	AF4-AF9 inh	E coli growth	FGF22 binding
COc1ccc(NC(=O)N(C)C[C@@H]2Oc3ccc(NC(=O)Nc4ccc(F)cc4)cc3C(=O)N([C@@H](C)CO)C[C@@H]2C)cc1	x	-1	-3	2.2	x	x	1.9	x	i
CN(CCc1ccccn1)C(=O)CCC1CCCN(C(=O)CN2CCCCCC2)C1 (configuration not stated)	2.5	-1	0	-2.8	-80	2%	2.8	0.72	i
CC1=C(C(=O)N(C(C)C)C(C)C)CC(CC(=O)NCC2CCCCC2)C(=O)N1Cc1ccccc1 (configuration not stated)	4.9	-14	-17	0.1	x	x	-2.3	x	i
NC(=O)C1=CN(Cc2ccc(Cl)cc2)CCC1C(F)(F)F (configuration not stated)	2.5	-7	-5	-2.1	x	-6%	-0.3	0.64	i
C[C@H]1NS(=O)(=O)c2cc(Cl)ccc2O[C@@H]1c1ccccc1	-0.1	-46	-75	-18	x	-6%	-8.4	x	i
COc1cccc(NC(=O)c2cc([N+](=O)[O-])ccc2NC(=O)CNCC2CCCO2)c1 (configuration not stated)	1.9	5	13	-1.2	100*	x	3.6	0.72	i

Screening data (PubChem)
